ClpP mod: qHTS Assay for Activators of ClpP. ATP-dependent Clp protease proteolytic subunit (Bacillus subtilis (strain 168)), P80244. purified B. subtilis ClpP, FRET peptide cleavage, 20 min. Potency, µM (highest dose often 57.5 µM), inactives show top-dose activity change, negative = active. actives 1.9% (n = 340,000). AID 651965, 2013; active = well fitted falling curve with a large enough effect; inconclusive = small, poorly fitted or top-dose-only effect; inactive = no such curve, though single readings can be large or run the other way; further: potency means the concentration at half of the fitted maximal effect; the source files actives as falling curves though it sought activators and does not explain the sign; nearly all actives have a fitted effect of over 65% in size; many hits overshoot -100%
Target sequence (P80244 whole entry, looked up): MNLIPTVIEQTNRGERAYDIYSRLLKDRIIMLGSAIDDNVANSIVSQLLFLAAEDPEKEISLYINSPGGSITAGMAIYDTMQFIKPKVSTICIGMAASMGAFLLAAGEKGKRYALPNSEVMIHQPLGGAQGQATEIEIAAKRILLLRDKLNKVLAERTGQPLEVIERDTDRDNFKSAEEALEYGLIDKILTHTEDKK
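Purified B. subtilis ClpP, 10 microg/mL final in Tris/HCl pH8 with KCl, BSA, glycerol and Tween-20, cleaved an Abz/nitrotyrosine-quenched decapeptide. Fluorescence (ex 320, em 430) was read at 0 and 20 min at room temperature. Delta was normalized to 5.8 microM ADEP and DMSO/no-enzyme controls.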
gsp ag: agonists of gsp mutant (McCune-Albright syndrome); gsp mutant cells, cAMP HTRF, 30 min; control for the full effect not named in the record; Potency, µM (top dose mostly 76.9 µM), without a hit: at the top dose activation (cAMP increase), actives largely listed as activators; actives 0.13% (n = 340,000); active = well fitted activation curve with a large enough effect; inconclusive = small, poorly fitted or top-dose-only effect, or another doubt; inactive = no such curve, though single readings can be large or run the other way; cell line not stated here;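 further: phosphodiesterase inhibitor Ro 20-1724 added with compounds to block cAMP breakdown; potency means the concentration at half of the fitted maximal effect; nearly all actives have a fitted effect of over 60% in size; about a fifth of the inactives were tested at one dose only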
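Cells stably selected in G418 were plated at 2000/well, grown 16-24 hr, then given compounds in DMSO with the PDE inhibitor […] (300 uM solution added) for 30 min at 37C; cAMP was read by HTRF.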
Menin MLL FP FL: menin-MLL binding inhibition, fluorescein peptide | FP activity change, % at 61.4 µM | 290,000 tested, under 10 active | Fluorescence polarization, fluorescein-MLL peptide displacement from menin | AID 1766; inconclusive = falling polarisation curve, or a change in total fluorescence; inactive = total fluorescence flat and polarisation flat or rising; no compound was filed as active; the % refers to the polarisation; negative = inhibition;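 further: % of control where 0% means no effect; inhibitors lower the polarisation; unlabelled MLL peptide was the positive control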
TRPML1 blocker: human mucolipin-1 channel inhibition; Q9GZU1; TRPML1-inducible cells, Ca2+ dye fluorescence, FDSS; stronger effect = lower value; inhibition of EC80 agonist-evoked calcium signal; activity change, negative = inhibition, % (test concentration not listed); actives 0.02% (n = 390,000); AID 624415; in the data active means activity change below about -50%; inconclusive means about -30% to -50%; inactive means above about -30%;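 further: stimulus is agonist 54-4 at its EC80 concentration; on the % scale 0 is the no-effect control and ±100 the full control effect; compound concentration not given in the record; the text of the record puts the active cut at -80%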
Target sequence (Q9GZU1 whole entry, looked up): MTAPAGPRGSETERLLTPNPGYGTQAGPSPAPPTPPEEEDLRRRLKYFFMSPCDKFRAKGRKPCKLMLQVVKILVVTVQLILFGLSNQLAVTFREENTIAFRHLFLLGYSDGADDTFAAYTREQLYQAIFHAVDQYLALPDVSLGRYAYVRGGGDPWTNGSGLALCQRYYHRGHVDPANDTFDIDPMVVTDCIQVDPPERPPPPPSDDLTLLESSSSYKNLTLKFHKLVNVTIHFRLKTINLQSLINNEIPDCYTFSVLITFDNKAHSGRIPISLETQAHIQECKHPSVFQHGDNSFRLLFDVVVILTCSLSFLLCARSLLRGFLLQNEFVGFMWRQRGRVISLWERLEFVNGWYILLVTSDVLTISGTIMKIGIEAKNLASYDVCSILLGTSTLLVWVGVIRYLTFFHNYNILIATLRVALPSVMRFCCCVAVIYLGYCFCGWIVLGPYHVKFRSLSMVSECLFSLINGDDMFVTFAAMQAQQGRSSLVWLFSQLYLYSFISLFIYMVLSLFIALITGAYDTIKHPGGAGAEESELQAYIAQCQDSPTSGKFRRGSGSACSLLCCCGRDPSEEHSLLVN
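Tet-induced TRPML1-DL cells loaded with Ca8 no-wash calcium dye were read kinetically on FDSS. Compound addition was followed by EC80 agonist 54-4 (4 uM final); inhibition was read over 110 s.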
gsp antag: antagonizes gsp, the McCune-Albright syndrome mutation. actives 0.4% (n = 340,000). gsp-mutant cells, cAMP HTRF, 30 min; control for the full effect not named in the record. Potency, µM (series often up to 76.9 µM), for inactives: at the highest dose activity change, negative = inhibition, actives largely listed as inhibitors; active = falling curve of any shape with a large fitted effect; inconclusive = falling curve, mostly with a smaller effect; inactive = flat or rising curve; cell line not stated here;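 further: intracellular cAMP measured with PDE inhibitor Ro 20-1724 present during compound exposure; potency means the concentration at half of the fitted maximal effect; on the % scale 0 is the no-effect control and ±100 the full control effect; nearly all actives have a fitted effect of over 65% in size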
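Cells in G418 medium, seeded 16-24 h, 37C; buffer exchange to DPBS + 1 mM CaCl2, 0.5 mM MgCl2, 0.05% BSA; cpds in DMSO + […] (300 uM stock), 30 min 37C; HTRF cAMP detection.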
TRPML1 agonist: activates the human TRPML1 channel; TRPML1-expressing cells, Ca2+ dye fluorescence, FDSS; host cell line not named in the record; reference of the full effect not given here; actives 0.12% (n = 410,000); activation, % (no concentration beside the values); AID 624414; Q9GZU1; in the data active = activation above about 50%; inconclusive = about 30% to 50%; inactive = below about 30%; further: 0% is about no effect; the text of the record puts the active cut at 80%
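Kinetic FDSS Ca2+ read in Tet-induced TRPML1-DL cells (ABD Ca8 dye plus quencher, 45-90 min RT loading): baseline, then compound, then 110 s agonist window; EC80 agonist 54-4 at 4uM final added afterwards for a 110 s antagonist window.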
Starred values were filed as active, the others as inactive; ? = inconclusive; . = no result given; & = joins results of further samples; [ ] = dose if it differs, or a comment.

SMILES | ClpP mod | gsp ag | Menin MLL FP FL | TRPML1 blocker | gsp antag | TRPML1 agonist
O=C(CNS(=O)(=O)/C=C/c1ccccc1)OC1CCOC1=O (configuration not stated) | . | 9% | -1.0 | -7 | -3% | 0.8
O=C(NCC1CCCCC1)C1CCC(=O)N(CCc2cccc(F)c2)C1 (configuration not stated) | . | 24% | -0.4 | -4 | 6% | -0.7
O=C(c1ccc(=O)[nH]c1)N(c1ccccc1)C(CCc1ccccc1)c1nc2ccccc2[nH]1 (configuration not stated) | -0.8% | . | . | -8 | . | -0.6
N/C(=N\NC(=O)Nc1ccc(Cl)cc1)c1ccccn1 | 0.2% | -4%[15.4 µM] | 3.2 | 24 | -3% | -0.6
C=CCN1C(=O)C(CCCC)NC1=S (configuration not stated) | -3.1% | 8% | 5.7 | 29 | 6% | -0.7
Cc1ccc(N)cc1CN1CCCC1=O | 1.9% | -7% | 5.0 | 0 | 2% | -0.1
CCOC(=O)CC(=O)CSc1nc(-c2ccc3c(c2)OCO3)cc(C(F)(F)F)c1C#N | 20µM* | ? | ? | -13 | -17% | 4.8
S=c1[nH]c2ccccc2n2c(=S)[nH]nc12 | 3.1% | -205%[inhibitor] | 4.9 | . | ? | .
COc1ccc(Cc2noc(CN3CCN(Cc4csc(C)n4)CC3)n2)cc1OC | . | 13% | -1.5 | -7 | 12% | -0.5
Clc1ccc(OC2CCN(Cc3nc(CC4CC4)no3)CC2)cc1 | -0.8% | 3% | -7.2 | -3 | -3% | 1.7
O=C(NCCCCc1ccccc1)c1cccc([N+](=O)[O-])c1 | -1.1% | 28% | -0.1 | 56 | -15% | 1.2
Cc1ccc(S(=O)(=O)N2CCC(=O)N(C(COCc3cccc(C(F)(F)F)c3)C(C)C)CC2)cc1 (configuration not stated) | 2.2% | 22% | -0.2 | -1 | -20% | 26
COc1cc(CNc2ccc3[nH]c(=O)[nH]c3c2)ccc1OCc1ccccc1Cl | 0.4% | -10%[15.4 µM] | 6.0 | -18 | -26% | -0.4
O=C(NCc1ccc2c(c1)CCN2C(=O)c1ccc(Cl)cc1)c1ccco1 | -3.9% | . | . | 5 | . | -0.3
CCOc1ccc(NC(=O)N(Cc2c[nH]c3ccccc23)C2CCCCC2)cc1 | 10% | . | . | 3 | . | 0.1
O=C(Nc1ccc(Br)cn1)c1cccc(-c2cc3ccccc3oc2=O)c1 | 14µM* | 7% | 0.1 | -9 | -1% | 0.1
CCN1CC(CN(C)Cc2cn(-c3cccc(C)c3)nc2-c2cccc(F)c2)CC1=O (configuration not stated) | -0.9% | -9% | -0.2 | -5 | -33% | -0.8
Cn1c(SCc2ccccc2)nnc1-c1ccco1 | . | -3% | 1.8 | -9 | 1% | -0.2
Cc1ccc(NC(=O)CSc2nnc3ccccn23)cc1S(=O)(=O)N1CCOCC1 | . | ? | -3.7 | -7 | 9% | 0.0
COc1ccc(CCNC(=O)c2nn(C)c3c2CSc2ccccc2-3)cc1OC | -0.9% | . | . | 28 | . | 2.5
O=C(c1ccc2ccccc2c1)c1c[nH]cc1-c1ccccc1 | 5.5% | ? | -1.2 | 14 | -14% | 0.2
Cc1ccc(S(=O)(=O)N2Cc3ccccc3CC2C(=O)Nc2ccc3c(c2)OCO3)cc1 (configuration not stated) | 0.0% | -4% | -2.8 | -7 | ? | 0.1
Cc1ccc(NC(=O)c2cc([N+](=O)[O-])ccc2N2CCCC2)cc1 | . | 7% | 0.3 | 5 | 1% | -0.7
O=C(NCCN1C(=O)C2C3C=CC(C3)C2C1=O)NCc1ccccc1 (configuration not stated) | 2.7% | -10% | -3.9 | 24 | -1% | 0.3
C=CCC1NS(=O)(=O)OCC1NC(=O)OCC(Cl)(Cl)Cl (configuration not stated) | 0.5% | -10% | 0.3 | 14 | 9% | -0.3
COc1ccc2oc(=O)c(C(=O)C[n+]3cccc(C)c3)cc2c1 | . | 20% | -0.1 | -12 | 6% | 0.0
Cc1cccc(OCc2nnc(SCC(=O)N3CCCC3)o2)c1 | . | 18% | -0.6 | -13 | 4% | 0.5
COc1cccc(C(=O)N[C@@H](C)C(=O)N2CCC3(CC2)NCCc2[nH]cnc23)c1 | -2.6% | 13% | . | -12 | 6% | -0.5
O=C(COc1ccc(S(=O)(=O)Nc2ccccc2)cc1)NCc1ccncc1 | . | 12% | 3.6 | 16 | -19% | 1.5
COCCN1C(=O)c2cc(C(=O)Nc3ccc(C)c(F)c3)ccc2C1Nc1ccc(C)c(F)c1 (configuration not stated) | -1.6% | -18% | 1.0 | 2 | -10% | 0.1
Cc1cc(C)nc(N2CCN(c3ncnc4c3cnn4Cc3ccc(Cl)cc3Cl)CC2)n1 | 1.3% | -19% | 2.6 | 40 | -5% | -0.3
COc1cccc(N(CC(=O)NC2CCCC2)C(=O)CCC(=O)Nc2nccs2)c1 | . | -9%[15.4 µM] | 5.7 | 2 | 17% | 0.5
CCCCn1c(SCC(=O)NCC2CCCO2)nc2ccc(N3CCOCC3)cc2c1=O (configuration not stated) | -21% | ? | 4.6 | 69 | -11% | -0.6
CCOC(=O)c1ccccc1NCN1C(=O)CSC1=O | 28µM* | 12% | 2.0 | -5 | 0% | 1.1
Cc1occc1C(=O)Nc1sc2c(c1C(N)=O)CCCCC2 | -17% | -1% | 5.1 | 17 | -30% | 4.2
COc1cccc(NC(=O)c2ccccc2NC(=O)c2ccncc2)c1 | -2.2% | -39%[inhibitor] | . | -4 | -14% | 0.4
COc1ccc(C2CCCN2C(=O)Nc2ccc(C)c(C)c2)cc1OC (configuration not stated) | -1.2% | 12% | -0.3 | 8 | 1% | -0.1
COc1cc(-c2noc(-c3cc4cccc(C)c4oc3=O)n2)cc(OC)c1OC | -6.0% | . | . | -2 | . | 0.9
COC(=O)C(CC(=O)c1ccc(Br)cc1)n1ccnc1 (configuration not stated) | -0.2% | . | 2.5 | . | . | 1.0
Cc1ccc(-c2nnc(SCC(=O)CC(=O)Nc3ccccc3)n2C)cc1 | -2.3% | -28% | 5.6 | 13 | ? | 4.5
C=CCNC(=O)N1CCCC(N2CCN(c3ccccc3OC)CC2)C1 (configuration not stated) | 16µM* | 5%[15.4 µM] | 1.2 | -8 | 11% | -0.4
Cc1ccccc1/C=C/c1cc[n+](C)cc1 | -23% | 26% | -0.5 | -5 | 1% | 0.2
Cc1ccc(C)c(N(C(=O)Cn2nnc(-c3cccs3)n2)C(C(=O)NC2CC2)c2ccc(C)o2)c1 (configuration not stated) | 4.3% | 20% | -0.1 | -1 | 4% | 2.1
CS(=O)(=O)c1nc(S(=O)(=O)c2ccc(Cl)cc2)c(N2CCC3(CC2)OCCO3)s1 | 0.8% | 10% | . | -3 | -22% | 2.8
Cc1cc(C)n(CC2CC(=O)N(c3ccc(Cl)cc3)C2=O)n1 (configuration not stated) | . | 11%[15.4 µM] | 2.3 | 18 | 3% | 1.5
CNc1cccnc1C=NNC(N)=S | -22% | 7% | . | 11 | -5% | 6.8
COc1cc(OC)c(-c2nc3c[n+](CC(=O)c4ccccc4)ccc3n2C)cc1OC | -6.9% | -50%[inhibitor] | 4.0 | 14 | 10% | 0.7
CC(C)(C)OC(=O)N1CCC(NC(=O)c2nc[nH]c2C(=O)N2CCN(C(=O)OC(C)(C)C)CC2)CC1 | 1.7% | -7% | . | 3 | -3% | -1.0
CCOC(=O)C(Cc1c[nH]c2ccccc12)NC(=O)c1ccccc1Br (configuration not stated) | -0.3% | 5%[15.4 µM] | 1.9 | -11 | -14% | 0.4
C=C(C)C(=O)Nc1cccc(C2=NOC3(C2)C[C@@H](C(N)=O)N(C(=O)CCCCC)C3)c1 (some centres not stated) | -1.5% | 16% | 0.2 | 11 | 6% | -0.4

Structural class: the compounds so far with a furan ring, fused or not
SMILES | ClpP mod | gsp ag | Menin MLL FP FL | TRPML1 blocker | gsp antag | TRPML1 agonist
O=C(NCc1ccc2c(c1)CCN2C(=O)c1ccc(Cl)cc1)c1ccco1 | -3.9% | . | . | 5 | . | -0.3
Cn1c(SCc2ccccc2)nnc1-c1ccco1 | . | -3% | 1.8 | -9 | 1% | -0.2
Cc1occc1C(=O)Nc1sc2c(c1C(N)=O)CCCCC2 | -17% | -1% | 5.1 | 17 | -30% | 4.2
Cc1ccc(C)c(N(C(=O)Cn2nnc(-c3cccs3)n2)C(C(=O)NC2CC2)c2ccc(C)o2)c1 (configuration not stated) | 4.3% | 20% | -0.1 | -1 | 4% | 2.1

In the list so far, two have a nitro group on carbon:
SMILES | ClpP mod | gsp ag | Menin MLL FP FL | TRPML1 blocker | gsp antag | TRPML1 agonist
O=C(NCCCCc1ccccc1)c1cccc([N+](=O)[O-])c1 | -1.1% | 28% | -0.1 | 56 | -15% | 1.2
Cc1ccc(NC(=O)c2cc([N+](=O)[O-])ccc2N2CCCC2)cc1 | . | 7% | 0.3 | 5 | 1% | -0.7

Other structures:
SMILES | ClpP mod | gsp ag | Menin MLL FP FL | TRPML1 blocker | gsp antag | TRPML1 agonist
COc1ccc(-c2nc3ccccc3o2)cc1NC(=O)CSc1ccc(Cl)cc1 | -30%&-23% | -2%[15.4 µM] | 4.3 | 12&-10 | -15% | -0.9&-0.4
COc1cc(/C=C(\C#N)C(=O)N2CCOCC2)ccc1OCc1ccccc1 | . | 0%[15.4 µM] | -0.7 | 27 | -17% | -0.5
COc1cc(NC(=O)c2ccc([N+](=O)[O-])o2)ccc1NC(=O)c1cccs1 | -0.7% | -11%[15.4 µM] | -1.5 | -12 | ? | -1.3
OCc1cccc[n+]1CCc1ccccc1 | . | -1%[15.4 µM] | . | 8 | 12% | 1.9
C/C(CC(=O)Nc1cccc(C(F)(F)F)c1)=N\NC(=O)C1CCCCC1 | . | -5%[15.4 µM] | 3.6 | 9 | 2% | -0.5
CC1Cc2cc(/C(O)=C3/C(=O)C(=O)N(Cc4ccncc4)C3c3ccc(N(C)C)cc3)ccc2O1 (configuration not stated) | -2.5% | 25% | 4.3 | -8 | 7% | 0.5
CCN(CC)c1ccc(C(=O)NNC(=O)c2ccc3c(=O)n4c(nc3c2)CCC4)cc1 | -4.0% | 29% | . | 8 | 0% | -0.7
CCCOc1ccc2cc(-c3ccccn3)c(=O)oc2c1 | . | -34%[inhibitor] | 4.4 | 1 | -12% | -0.4
O=C(Nc1nc2ccccc2[nH]1)c1cccc([N+](=O)[O-])c1 | . | -3% | -0.4 | 5 | -2% | -0.1
COc1ccc(N2CCN(C(=O)CCS(=O)(=O)c3ccc4c(c3)NC(=O)CO4)CC2)cc1 | -0.4% | 9% | -0.1 | -4 | -23% | 0.5

Hits appear at their usual frequency; about 2.1% have a hit in one of these screens.
